Compound activity: PubChem BioAssay, Fisher Drug Discovery Resource Center
NPYLR7 ag: agonists of mosquito NPYLR7 receptor, primary screen, cell-based, Aedes aegypti, calcium fluorescence, mosquito biting behavior; Aedes aegypti neuropeptide Y-like receptor 7 (NPYLR7); HEK293T NPYLR7/Galpha15, GCaMP6s calcium fluorescence; activation, % at 10 µM; 0.15% of 270,000 active; AID 1259423, 2018; in the data active = activation above about 40%;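 note: 0% = vehicle and 100% = reference agonist at the receptor; some compounds past the cut are filed as inactive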
NPYLR7 ag max-min: recorded beside NPYLR7 ag, whose call it bears; activation, %; measured here: Max-Min RFU normalised activation; some inactives read as strong as hits;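 span of the calcium signal over five minutes; 0% = vehicle and 100% = native peptide agonist; compound fluorescence can raise it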
* marks the source's active call; other numbers are inactive results; & = joins results of further samples.

cpd | compound | NPYLR7 ag | NPYLR7 ag max-min
1 | Nc1nnc(SC(c2ccccc2)c2ccc(Cl)cc2)s1 (stereo not drawn) | -0.8 | -2.4
2 | CCSc1ncccc1C(=O)N1CCN(Cc2cc(=O)c(OCc3ccc(-c4ccccc4C#N)cc3)co2)CC1 | 2.7 | 0.0
3 | FC(F)(F)Oc1cccc(-c2nc3c(NCc4ccccc4)nccc3[nH]2)c1 | -4.6 | -11.7
4 | COc1ccc(/C=N\NC(=O)CSc2nnc(-c3ccc(OC)c(OC)c3)n2-c2ccccc2)cc1OC | 5.9 | 13.3
5 | CS(=O)(=O)Oc1ccc(Cl)cc1CN(CC1CCCO1)C(=O)c1cccs1 (stereo not drawn) | -0.4 | 8.4
6 | CC(=O)c1ccc(OCC(=O)NCCN2C(=O)SC(=Cc3cccc(Cl)c3Cl)C2=O)cc1 | -5.2 | -11.0
7 | CCOC(=O)C1(CCCc2ccccc2)CCN(C(=O)CC2=CCCCC2)CC1 | 14.5&3.3 | 1.2&3.7
8 | COc1ccc2c(c1)C1(SCCN1C(=O)Nc1cccc(Cl)c1)C(=O)N2Cc1c(F)cccc1F (stereo not drawn) | 6.1 | 10.3
9 | C=CCN(Cc1nc2sc(C)c(C)c2c(=O)[nH]1)CC(O)COCc1ccco1 (stereo not drawn) | 7.7 | 10.0
10 | CCCn1nc(C(=O)Nc2cccc(S(=O)(=O)N3CCCCCC3)c2)ccc1=O | 5.0 | 4.5
11 | CC(C#N)OC(=O)c1cc2ccccc2s1 (stereo not drawn) | -1.3 | -3.3
12 | OC1(Cc2cc(-c3ccccc3)no2)CCN(Cc2ccc3c(c2)OCCO3)CC1 | 15.2 | 7.8
13 | CC(=O)Nc1nc(C(=O)OC(C)C(=O)NC(C)(C#N)C(C)C)cs1 (stereo not drawn) | 4.1 | 2.8
14 | CCCc1cc(=O)n(CC(=O)Nc2cccc([N+](=O)[O-])c2)c(-n2nc(C)cc2C)n1 | 3.4 | 5.7
15 | CCOP(=O)(Cc1ccc(NS(=O)(=O)c2cccc(C)c2)cc1)OCC | -22.5 | -26.6
16 | O=C(Cn1ncc2ccccc21)N1CC(=O)N(C2CCCCC2)CC(OCc2cccnc2)C1 (stereo not drawn) | 12.7 | -1.3
17 | O=C(Nc1cnn(CC(F)F)c1)N1CCCCCC1c1ccco1 (stereo not drawn) | -24.3 | -24.5
18 | COc1ccc(CCOc2nc(-c3ccco3)n(-c3ccc(NC(=O)c4cccc([N+](=O)[O-])c4)cc3)n2)cc1 | 19.8 | 30.1
19 | CCOC(=O)c1c(-c2cccs2)csc1NC(=O)CCCl | -6.2 | -9.3
20 | COc1ccc(Cl)c2sc(N(CCN3CCOCC3)C(=O)c3cc(C)nn3C)nc12 | 0.8 | -0.9

Quoted at random: 3 entries already listed.
cpd | compound | NPYLR7 ag | NPYLR7 ag max-min
8 | COc1ccc2c(c1)C1(SCCN1C(=O)Nc1cccc(Cl)c1)C(=O)N2Cc1c(F)cccc1F (stereo not drawn) | 6.1 | 10.3
16 | O=C(Cn1ncc2ccccc21)N1CC(=O)N(C2CCCCC2)CC(OCc2cccnc2)C1 (stereo not drawn) | 12.7 | -1.3
5 | CS(=O)(=O)Oc1ccc(Cl)cc1CN(CC1CCCO1)C(=O)c1cccs1 (stereo not drawn) | -0.4 | 8.4

(listing goes on)
cpd | compound | NPYLR7 ag | NPYLR7 ag max-min
21 | Cc1ccc2[nH]nc(C(=O)N3CCC(c4cc(C(C)C)n[nH]4)CC3)c2c1 | -3.0 | -1.8
22 | CCc1ccc2oc(-c3ccc(NC(=O)c4cccc5ccccc45)cc3)nc2c1 | -0.5 | -12.3
23 | C/C=C(\C)C(=O)N1CCc2c(sc(S(=O)(=O)Nc3ccc(F)cc3)c2C(=O)OC)C1 | 15.2 | 1.6
24 | CC(=O)Nc1cc(C(C)(C)C)ccc1C(C)(C)C | -8.2 | -10.4
25 | CCn1c(SCC(=O)N/N=C\c2cccc(OC)c2O)nc2ccccc21 | 1.8 | 6.7
26 | CC1CN(c2nc(Cc3ccccc3)ns2)CCN1C(=O)Nc1ccc(C(F)(F)F)cc1 (stereo not drawn) | -3.6 | 6.9
27 | COc1ccccc1-c1cc(C(=O)NCCCN2CCCCC2C)n2nc(-c3ccc(Cl)cc3)cc2n1 (stereo not drawn) | 14.6 | 18.2
28 | CCc1nc(C)c(C(=O)NCc2cc(-c3cccnc3)no2)s1 | -0.2 | -3.4
29 | CN(C)CCCNC(=O)c1cc(NC(=O)c2ccccc2Br)ccc1N1CCCC1 | -3.9 | -11.6
30 | Cc1cc(CN2CCC(N(C)CC(=O)NC(C)C3CC4CCC3C4)CC2)on1 (stereo not drawn) | 5.5 | 3.5
31 | CCOC(=O)CCNC(=O)N1CC[C@@H]2CC[C@H](C1)N2C | 12.9 | 6.2
32 | Cc1cc(C)n(C(C)CC(=O)N2CCN(CCOC(C)C)CC2)n1 (stereo not drawn) | 3.1 | 0.9
33 | COc1ccc(Cl)cc1C(=O)Nc1nnc(SCC(=O)Nc2ccc(Br)cc2)s1 | -6.1 | 2.7
34 | Cc1nc(CNC(=O)c2cn(-c3ccccc3)nc2C(C)(C)C)no1 | 8.4 | 6.3
35 | CC1(C(=O)N2CCC(c3c[nH]c4ncccc34)CC2)CC1(Cl)Cl (stereo not drawn) | 10.5 | 10.0
36 | Cc1ccccc1S(=O)(=O)NCC1CCN(Cc2cnn(C)c2)C1 (stereo not drawn) | -4.7 | -5.0
37 | COc1ccc(N2CCN(c3nc(SCc4ccc(C(=O)NCCN(C)C)cc4)nc(C)c3C)CC2)cc1 | 8.1 | 10.7
38 | COc1cc(C(=O)Nc2nnc(C(C)C)s2)cc(OC)c1OC | -7.1 | -9.0
39 | O=C(C=Cc1ccsc1)N1CCN(S(=O)(=O)c2cc(Cl)ccc2Cl)CC1 | -0.8 | 2.4
40 | O=C(c1csc(=Nc2ccccn2)n1Cc1cccs1)N1CCC2(CCOC2=O)C1 (stereo not drawn) | 10.3 | 9.4

Of the compounds above, these have a tert-butyl group:
cpd | compound | NPYLR7 ag | NPYLR7 ag max-min
24 | CC(=O)Nc1cc(C(C)(C)C)ccc1C(C)(C)C | -8.2 | -10.4
34 | Cc1nc(CNC(=O)c2cn(-c3ccccc3)nc2C(C)(C)C)no1 | 8.4 | 6.3

(list continues)
cpd | compound | NPYLR7 ag | NPYLR7 ag max-min
41 | CC(C)N=c1ccccn1C(=O)c1cc(=O)[nH]c2ccccc12 | 1.9 | 1.5
42 | Cc1ccc(OCc2cc(C(=O)N3CCCCC3c3nccs3)no2)cn1 (stereo not drawn) | 2.3 | 2.1
43 | CC(=O)N1CCC(NC(=O)C2CC3CCC2C3)C1 (stereo not drawn) | -1.4 | -7.5
44 | CN(Cc1cccc2cnccc12)CC1CCN(CCc2ccc(F)cc2)CC1 | -1.2 | -5.3
45 | CCN(CC)c1onc(-c2ccc(F)cc2)c1CN(Cc1ccco1)C(C)=O | 3.9 | 8.2
46 | O=C(NCCCn1nc(-c2cccnc2)ccc1=O)c1ccc(Cl)cc1 | 12.5 | 5.1
47 | CC1(C)CC2CC(C)(CN2C(=O)c2cc3ccsc3n2CCCc2ccccc2)C1 (stereo not drawn) | 9.8 | 5.6
48 | COc1ccc(CN(C)C(=O)CC2NC(=O)c3ccccc32)c2cccnc12 (stereo not drawn) | 1.7 | -2.2
49 | CN1CCCN(C(=O)CSCc2ccccc2Cl)CC1 | 2.5 | 3.3
50 | C1CCc2c(c(N3CCOCC3)nc3sc4c(NCCN5CCOCC5)nnnc4c23)C1 | -3.5 | -4.3
51 | CCC(c1ccc(OC)cc1)N(CC)C(=O)c1ccc2c(c1)nnn2C (stereo not drawn) | -2.1 | -12.8
52 | COc1ccc(NC(=O)N2CCC3(CC2)SCCN3C(=O)c2ccc(OC)cc2)cc1 | 2.0 | 13.7
53 | COC(=O)CSc1nc(C)cc(C)c1C#N | 1.0 | -2.3
54 | COCCN(CCC(=O)NCc1ccco1)c1nc(-c2ccccc2)nc2ccccc12 | -1.8 | 9.1
55 | Cc1ncc(CO)c(CN(Cc2cnn(C)c2)C2CC2)c1O | -2.8 | 4.9
56 | CC(=O)Cn1cnc2sc3c(c2c1=O)CCC(C)C3 (stereo not drawn) | 1.2 | 0.5
57 | COc1cc(F)c(C(C)NC(=O)N(C)CC2CCC2)cc1OC (stereo not drawn) | -0.7 | 2.8
58 | Cc1ccccc1C1(O)CCN(Cc2cnc(N3CCCC3)nc2)C1 (stereo not drawn) | 5.5 | 5.0
59 | CS(=O)c1cccc(NC(=O)NCC2(C)CCCS2)c1 (stereo not drawn) | 2.6 | -0.6
60 | CCCNC(=O)C1(C)CCCN(C=C2N=C(c3c(C)noc3C)ON2)C1 (stereo not drawn) | 1.2 | -1.4
61 | Cc1ccc(CN(C)C(=O)Cc2c(C)nc3[nH]n(C)c(=O)c3c2C)o1 | -0.4 | -2.6
62 | CCn1c(SCCC(N)=O)nnc1-c1cccs1 | -6.6 | -9.9
63 | COc1ccc(C)c2sc(=NC(=O)C3=COCCO3)n(C)c12 | 2.2 | 53.3
64 | CC(=O)Nc1nc(-c2cc3cc(Cl)ccc3oc2=O)cs1 | -1.5 | -0.4
65 | O=c1c([N+](=O)[O-])c(O)n(-c2ccccc2)c(=O)n1-c1ccccc1 | 6.0 | 6.9
66 | CN(CC1CC1)CC1CCN(C(=O)CCC2CCCCO2)C1 (stereo not drawn) | -0.4 | -1.1
67 | CCCCN1C(=O)C(=Cc2c(NC)nc3c(C)cccn3c2=O)SC1=S | 1.4 | -3.6
68 | COc1ccc2c(c1)C1(C)CCCc3c(O)c(-c4ccccc4)c(=O)n-2c31 (stereo not drawn) | 5.7 | 4.5
69 | COC(=O)C(C(=O)OC)=C(/C=C/C=C/N(C)C)N(C)C | -6.5 | -19.7
70 | CN(C)c1cccc(-c2cc(Nc3ccc(C(C)(C)C)cc3)ncn2)c1 | 6.6 | 4.6
71 | CC(C)Cc1cc(C(=O)NCc2ccc(CN)cc2)n(C)n1 | 34.9 | 19.1
72 | CC(C)(C)c1cc2nc(C(=O)NCc3ccncc3)cc(-c3ccccc3F)n2n1 | -9.0 | 2.2
73 | Cc1ccc(S(=O)(=O)Oc2cc(Cl)ccc2-c2nc3ncccc3o2)cc1 | 21.9 | 23.3
74 | Cc1cccn2c(=O)nc(SCC(=O)N3CCc4ccccc43)nc12 | 27.7 | 26.3
75 | Cc1nc(N2CCN(C3CCOCC3)CC2)cc(-n2cccn2)n1 | -4.8 | -12.2
76 | CCOc1ccccc1CN1CCN(C2CCCCCC2)CC1CCO (stereo not drawn) | -1.8 | -5.1
77 | Cc1cc(C)cc(C(=O)N2CCN(Cc3nc4ccccc4s3)CC2)c1 | -5.6 | -7.2
78 | C=CCN(Cc1nc2sc3c(c2c(=O)[nH]1)CCN(Cc1ccccc1)C3)CC(O)COCC(C)C (stereo not drawn) | 5.0 | 4.9
79 | Cc1ccc(C2SCC(=O)N2CCO)cc1 (stereo not drawn) | -2.3 | -6.0
80 | O=C(Cn1cccnc1=O)Nc1ccc(N2CCCC2)cc1 | 1.5 | 0.5

Structural class: the entries above with a cyano group (4)
cpd | compound | NPYLR7 ag | NPYLR7 ag max-min
2 | CCSc1ncccc1C(=O)N1CCN(Cc2cc(=O)c(OCc3ccc(-c4ccccc4C#N)cc3)co2)CC1 | 2.7 | 0.0
11 | CC(C#N)OC(=O)c1cc2ccccc2s1 (stereo not drawn) | -1.3 | -3.3
13 | CC(=O)Nc1nc(C(=O)OC(C)C(=O)NC(C)(C#N)C(C)C)cs1 (stereo not drawn) | 4.1 | 2.8
53 | COC(=O)CSc1nc(C)cc(C)c1C#N | 1.0 | -2.3

(more compounds)
cpd | compound | NPYLR7 ag | NPYLR7 ag max-min
81 | COc1ccccc1NC(=O)c1cccc(Nc2nc(-c3ccccc3)c3cc(Br)ccc3n2)c1 | 6.1 | 12.2
82 | Cc1nc(CSCC(=O)NNC(=O)C23CC4CC(CC(C4)C2)C3)no1 | -2.5 | 8.8
83 | N#CCCN(CC1CC1)S(=O)(=O)Cc1cc(Cl)ccc1F | -1.4 | -3.5
84 | CCn1cc(-c2c(-c3ccccc3)ncn2C(C)c2cnn(C)c2)c(C)n1 (stereo not drawn) | 25.2 | 11.6
85 | CCNc1nc(C)c(C(=O)N(C)Cc2cnc(CC)s2)s1 | -0.7 | -2.5
86 | O=[N+]([O-])c1cccc(S(=O)(=O)N(OS(=O)(=O)c2ccc(Cl)cc2)c2ccccc2)c1 | 0.2 | 6.5
87 | CC(C)=CCC/C(C)=C/CNC(=O)Cc1ccccc1 | -7.4 | -13.1
88 | CCS(=O)(=O)NCC1CN(c2ccc3c(c2)OCO3)C(=O)O1 (stereo not drawn) | 5.1 | 8.7
89 | CC(=O)N1CCN(Cc2nc(C3CC3)cs2)CC1 | -7.3 | -11.7
90 | O=C(Cc1ccc(F)cc1F)N1CCC2(CC1)OCc1cc(-c3cccc(F)c3)ccc1O2 | -2.6 | -10.6
91 | CCCCN(CC)C(=O)c1c(C(F)(F)F)nn(C2CCCN(C)C2)c1C (stereo not drawn) | 2.2 | -3.7
92 | CCOCCOc1nc(-c2ccc(OC)cc2)n(-c2ccc(NC(=O)C(C)C)cc2)n1 | 14.2 | 18.0

Complete entries, quoted from the list. Order of screens: NPYLR7 ag	NPYLR7 ag max-min
CCNc1nc(C)c(C(=O)N(C)Cc2cnc(CC)s2)s1 is listed as -0.7	-2.5
CCS(=O)(=O)NCC1CN(c2ccc3c(c2)OCO3)C(=O)O1 (stereo not drawn) is listed as 5.1	8.7
CCCCN(CC)C(=O)c1c(C(F)(F)F)nn(C2CCCN(C)C2)c1C (stereo not drawn) is listed as 2.2	-3.7
O=C(Cc1ccc(F)cc1F)N1CCC2(CC1)OCc1cc(-c3cccc(F)c3)ccc1O2 is listed as -2.6	-10.6
CC(C)=CCC/C(C)=C/CNC(=O)Cc1ccccc1 is listed as -7.4	-13.1

These rows are one share of the data, so the mix of outcomes need not match the whole.
